# Rango release inh – inhibitors of RanGTP-induced Rango-importin beta complex dissociation | O95149+P62826 | Biochemical FRET Rango-importin beta, RanGTP-induced dissociation | Potency, µM (highest dose often 46.1 µM), for the others: at the top dose activity change, negative = inhibition | actives 0.071% (n = 340,000); active means falling FRET ratio curve, often poorly fitted, with flat reads before Ran was added; inconclusive means other falling curves, or compound fluorescence or quenching; inactive means flat or rising ratio curve;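 further: potency means the concentration at half of the fitted maximal effect; % of control where 0% means no effect; nearly all actives have a fitted effect of over 45% in size; -100% = wells without RanGTP and RCC1; the record marks most hits as doubtful in a second field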
#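 FRET read at 45 min, room temperature: inhibitors block the CFP/YFP signal rise when RanGTP (0.6 uM Ran, 2 mM GTP, 0.2 uM RCC1) frees Rango (0.1 uM) from importin beta (0.25 uM). Pre-read after 5 min compound exposure flags interference.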
# GLA inh pH 4.5 – blocks human alpha-galactosidase A at pH 4.5 | activity change, negative = inhibition, % at 105 µM | P06280 | purified enzyme, 4-MU-alpha-Gal fluorescence, pH 4.5 | 230,000 tested, under 10 active; inconclusive = small, poorly fitted or top-dose-only inhibition, or a rising curve; inactive = flat fitted curve, though single readings scatter; no compound was filed as active;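 further: 0% = full activity with enzyme and -100% = basal without enzyme; dose as in the result columns while the protocol names 77 µM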
# miR-21 reporter – miR-21 reporter, rising signal. AID 2288. Potency, µM (titrated, usually from 38.3 µM), for inactives: at the top dose reporter change, positive = more light. HeLa miR-21 FLuc reporter, luciferase, 48 h. 340,000 tested, under 10 active; active = well fitted rising curve with a large enough effect; inconclusive = small, poorly fitted or top-dose-only effect; inactive = no such curve, though single readings can be large or run the other way;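 further: % of control where 0% means no effect; miR-21 action dims this reporter so a rising signal means less miR-21 action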
#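 Using DMEM plus 10% FBS, HeLa miR-21-FLuc cells are incubated with test compounds (final up to about 40uM) for 48 hours; firefly luciferase signal is then imaged following reagent-mediated lysis.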
# Rango complex inh – inhibitors of Rango-importin beta complex formation | Q14974 | Rango CFP/YFP FRET sensor + importin beta, 45 min | Potency, µM (doses to about 92.2 µM), for inactives: at the top dose inhibition of complex formation | actives 0.031% (n = 340,000); active = rising FRET ratio curve, often small or poorly fitted; inconclusive = mostly compound fluorescence or quenching in the first reads; inactive = flat curves in all reads;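 further: potency means the concentration at half of the fitted maximal effect; 0% = DMSO wells and 100% = buffer wells lacking importin beta; nearly all actives have a fitted effect of over 15% in size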
# Target sequence (Q14974 whole entry, looked up): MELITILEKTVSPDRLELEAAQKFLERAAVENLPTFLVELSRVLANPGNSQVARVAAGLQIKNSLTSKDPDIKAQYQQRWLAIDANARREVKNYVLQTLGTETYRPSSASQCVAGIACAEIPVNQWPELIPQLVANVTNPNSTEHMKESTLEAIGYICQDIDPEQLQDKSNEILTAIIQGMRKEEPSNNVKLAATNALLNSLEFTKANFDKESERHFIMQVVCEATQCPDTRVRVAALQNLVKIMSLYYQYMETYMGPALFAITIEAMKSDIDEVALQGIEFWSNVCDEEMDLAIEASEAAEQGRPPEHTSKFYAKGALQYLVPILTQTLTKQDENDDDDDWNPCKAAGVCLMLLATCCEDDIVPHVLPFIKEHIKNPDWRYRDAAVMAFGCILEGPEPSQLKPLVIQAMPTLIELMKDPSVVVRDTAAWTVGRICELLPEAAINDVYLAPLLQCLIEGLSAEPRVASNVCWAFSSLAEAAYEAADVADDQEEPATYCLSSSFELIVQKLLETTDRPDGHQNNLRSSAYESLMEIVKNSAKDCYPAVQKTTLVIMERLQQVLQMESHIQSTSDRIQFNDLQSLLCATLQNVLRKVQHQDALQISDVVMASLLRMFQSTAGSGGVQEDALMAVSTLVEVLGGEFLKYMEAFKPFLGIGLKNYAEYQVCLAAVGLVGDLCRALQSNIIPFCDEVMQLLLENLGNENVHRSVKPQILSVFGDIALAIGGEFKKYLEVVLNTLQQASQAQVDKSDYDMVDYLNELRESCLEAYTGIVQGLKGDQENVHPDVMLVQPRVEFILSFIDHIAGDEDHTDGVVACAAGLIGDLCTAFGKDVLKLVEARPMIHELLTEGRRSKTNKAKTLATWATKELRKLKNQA
#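 FRET biosensor Rango (snurportin 1 IBB between N-terminal EYFP and C-terminal Cerulean), 50 nM in PBS/1 mM DTT/0.02% Tween-20/0.1% BSA, preincubated 5 min RT with compound; 0.125 microM importin beta added, 45 min RT, CFP/YFP FRET ratio read.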
# The depositor's hits bear a star; ? = inconclusive; · = not tested or not shown; & = joins results of further samples. An excerpt. The share of hits here may be higher or lower than overall.
# The opening two compounds, to show the layout:
Rango complex inh | GLA inh pH 4.5 | miR-21 reporter | Rango release inh | Compound
-1.7% | -2 | 2% | -11% | O=C(Nc1cccc(NS(=O)(=O)c2ccc(S(=O)(=O)NC3CC3)cc2)c1)c1ccccn1
-0.8% | 4 | -11% | -17% | O=C(Nc1nnc(-c2ccccc2)s1)c1cc(S(=O)(=O)N2CCOCC2)c(Cl)cc1Cl

# The whole of this part, repeating the preview:
Rango complex inh | GLA inh pH 4.5 | miR-21 reporter | Rango release inh | Compound
-1.7% | -2 | 2% | -11% | O=C(Nc1cccc(NS(=O)(=O)c2ccc(S(=O)(=O)NC3CC3)cc2)c1)c1ccccn1
-0.8% | 4 | -11% | -17% | O=C(Nc1nnc(-c2ccccc2)s1)c1cc(S(=O)(=O)N2CCOCC2)c(Cl)cc1Cl
7.0% | 2 | -7% | -4% | Cc1cc(NC(=O)CSc2ccc3nnc(-c4cccc(F)c4)n3n2)no1
-1.5% | · | · | -9% | O=C(Cn1nnc(-c2ccccc2)n1)NC1CCS(=O)(=O)C1 (stereo not given)
1.0% | 1 | 0% | -7% | Cc1c(NC(=S)NC(=O)C(c2ccccc2)c2ccccc2)cccc1C(=O)O
0.4% | · | · | 3% | Cc1ccc(CNCc2cc(Cl)ccc2O)cc1
-1.8% | 8 | -8% | -3% | CCn1nnnc1SCC(=O)c1ccc(NC(C)=O)cc1
0.2% | 6 | -15% | 6% | COCCNCCCOc1ccc(Cl)cc1Br
-0.3% | 2 | -35%&-51% | -17% | CCOc1ccc(NC(=O)c2ccc3snnc3c2)cc1
0.4% | · | · | 4% | COc1ccc(S(=O)(=O)NCC(c2ccc3c(c2)OCO3)N2CCOCC2)cc1C (stereo not given)
-11% | 3 | -8% | -5% | O=C(OCc1cnc(Cl)s1)c1cccc(Cl)c1Cl
-0.8% | -19 | -5% | 15% | O=C(Cn1c(-c2ccccc2)c[n+]2ccsc12)c1ccc([N+](=O)[O-])cc1
3.5% | 13 | -5% | -3% | Cc1cc(C(=O)O)c(=O)[nH]c1C
-2.0% | 2 | 1% | 23% | O=C(O)CNC(=O)c1ccccc1NC(=O)c1ccco1
6.2% | 8 | -16% | -5% | CNC(=O)NCC12CC3CC(CC(C3)C1)C2
-0.7% | · | · | 5% | Cc1ccc(S(=O)(=O)CCC(=O)Nc2cccc(S(=O)(=O)N3CCCCCC3)c2)cc1
-1.2% | -10 | -12% | -7% | CC(=O)Nc1ccc(S(=O)(=O)Nc2nc3ccccc3nc2N2CCCC2)cc1
-2.3% | 3 | -2% | 1% | COc1cc(OC)cc(C(=O)NCC(=O)OC2CCOC2=O)c1 (stereo not given)
0.5% | · | -1% | -2% | Cc1nn(C)c(C(=O)N/N=C/c2ccncc2)c1Cl
-2.5% | · | · | -8% | Brc1cccc(C=Nc2cccc3ncccc23)c1
-1.7% | · | 12% | 13% | Cc1ccc(NC(=O)Cc2nnc(SCC(=O)NC3=NCCS3)n2C)cc1
3.5% | -4 | ? | -15% | COc1ccc(S(=O)(=O)n2nc(-c3ccc(Cl)cc3)cc2N)cc1
? | -18 | -10% | -23% | Cc1ccc2[nH]c(=O)c(C(c3nnnn3C3CCCC3)N3CCCc4ccccc43)cc2c1 (stereo not given)
-0.3% | 5 | 4% | -10% | O=C(/C=C/c1ccco1)NCC1(c2ccccc2)CCCC1
-0.7% | -6 | -36% | 2% | CN(Cc1ccccc1)S(=O)(=O)c1ccc2[nH]cc(C(=O)NCC3CCCO3)c(=O)c2c1 (stereo not given)

# Shown with values under each structure: five of the compounds above
# Values in the order – Rango complex inh, GLA inh pH 4.5, miR-21 reporter, Rango release inh
CCn1nnnc1SCC(=O)c1ccc(NC(C)=O)cc1
 : -1.8%, 8, -8%, -3%
Cc1ccc(NC(=O)Cc2nnc(SCC(=O)NC3=NCCS3)n2C)cc1
 : -1.7%, ·, 12%, 13%
Cc1ccc2[nH]c(=O)c(C(c3nnnn3C3CCCC3)N3CCCc4ccccc43)cc2c1 (stereo not given)
 : ?, -18, -10%, -23%
CNC(=O)NCC12CC3CC(CC(C3)C1)C2
 : 6.2%, 8, -16%, -5%
CCOc1ccc(NC(=O)c2ccc3snnc3c2)cc1
 : -0.3%, 2, -35%&-51%, -17%

# Continued:
Rango complex inh | GLA inh pH 4.5 | miR-21 reporter | Rango release inh | Compound
? | -4 | -4% | 6% | O=C(Cn1c(O)c(/C=C2\C=Nc3ccccc32)sc1=O)Nc1ccc2c(c1)OCO2
-1.4% | -5 | -2% | -2% | Oc1ccc(Cl)cc1/C=N/c1nccs1
4.1% | 3 | -5% | 24% | Cc1ccc(CS(=O)(=O)CCC(=O)NCc2ccc3c(c2)OCO3)cc1
10% | -7 | 22% | 18% | Cc1ccsc1C(=O)C1CCCN(Cc2cccn2-c2ccc(Cl)cn2)C1 (stereo not given)
-1.9% | -5 | -3% | 1% | COc1cc(C)nc(N2CCCC(C(=O)NCC(C)C)C2)n1 (stereo not given)
-3.8% | 3 | -13% | 9% | CCNS(=O)(=O)c1ccc(C(=O)Nc2ccccc2)cc1
-0.2% | 3 | -5% | -12% | COc1ccc2cc(CN(Cc3ccco3)C(c3nnnn3C3CCCCC3)C(C)C)c(=O)[nH]c2c1 (stereo not given)
-3.6% | · | · | 22% | CC(NC(=O)c1cccs1)c1ccccc1 (stereo not given)
-0.8% | 4 | -5% | 4% | COc1ccc(C(=O)N2CCN(S(=O)(=O)N3CCOCC3)CC2)cc1OC
1.4% | · | · | 10% | CCC(NS(=O)(=O)c1cccs1)c1ccc(C)cc1 (stereo not given)
5.7% | 1 | -13% | 1% | CSc1nc2ccc(NS(=O)(=O)c3ccc(Cl)s3)cc2s1
? | -7 | -3% | 0% | Cc1cc(Cl)ccc1Oc1ncc(CN2CCN(c3ccccc3)CC2)s1
3.5% | -4 | -27% | -9% | CN(C(=O)c1ccco1)c1nc(CC(=O)Nc2ccccc2)cs1
-2.9% | · | · | 8% | CC(=O)Nc1ccc(S(=O)(=O)NCC(=O)Nc2ccc3c(c2)OCO3)cc1
0.3% | -7 | -6% | 6% | COc1ccc(NC(=O)N(CCO)Cc2cc3c(C)cc(C)cc3[nH]c2=O)cc1
2.6% | · | · | 13% | CSc1ccccc1NC(=O)CN1C(=O)C2CC=CCC2C1=O (stereo not given)
-0.3% | · | -44% | 6% | COc1ccc(N(C(=O)c2cnccn2)C(C(=O)NCc2ccccc2)c2ccc(O)cc2)cc1 (stereo not given)
-3.3% | -6 | -4% | -4% | CCCOc1ccc(N2C(=O)CC(SC(=N)N3N=C(c4ccccc4)CC3c3ccccc3)C2=O)cc1 (stereo not given)
-0.2% | 4 | -8% | -5% | Cn1c(SCc2ccc(C#N)cc2)nnc1-c1cccc(Cl)c1
-1.2% | · | 0% | 2% | COc1ccccc1NC(=O)C1CCN(S(=O)(=O)c2ccc3c(c2)CC(C)N3C(C)=O)CC1 (stereo not given)
0.8% | · | · | 7% | O=C(Nc1ccc(Cl)c(S(=O)(=O)N2CCOCC2)c1)c1cc(=O)[nH]c2ccccc12
0.5% | -6 | -2% | 3% | Cc1cc(NC(=O)CSc2nnc(Cc3ccccc3)o2)no1
0.5% | 0 | -49% | ? | COc1ccc(-c2csc(NC(=O)CSc3nc(SC)ns3)n2)cc1
4.9% | 5 | -1% | 7% | C/C(=C\c1ccccc1)C(=O)n1nnc2ccccc21
? | 0 | -2% | -2% | COC(=O)c1c(NC(=O)CSc2nnnn2-c2ccccc2)sc2c1CCCC2

# Complete entries as entered above. Order of values: Rango complex inh	GLA inh pH 4.5	miR-21 reporter	Rango release inh
# `COC(=O)c1c(NC(=O)CSc2nnnn2-c2ccccc2)sc2c1CCCC2` is entered as ?	0	-2%	-2%
# `CC(=O)Nc1ccc(S(=O)(=O)NCC(=O)Nc2ccc3c(c2)OCO3)cc1` is entered as -2.9%	·	·	8%

# New compounds follow:
Rango complex inh | GLA inh pH 4.5 | miR-21 reporter | Rango release inh | Compound
1.9% | -2 | -1% | 0% | Cc1cccc(-n2cc(CN3CCN(Cc4nccn4C)CC3)c(-c3cccc(F)c3)n2)c1
-3.5% | -6 | -9% | 0% | COc1ccc(-c2nc(NC(=O)CSCCO)sc2C)cc1
-1.6% | · | · | -9% | CCOC(=O)C1=CC[C@H]2c3c(c4ccccc4n3C)C(=O)C1N2S(=O)(=O)c1ccc(C)cc1
? | 0 | -20% | -12% | C=CCOc1c(Br)cc(/C=C2/NC(=S)N(C(C)=O)C2=O)cc1OC
-4.5% | 8 | -1% | 1% | CC(NC(=O)Nc1cccc(Cl)c1)C(c1cccs1)N1CCCC1 (stereo not given)
0.5% | 3&-4 | 3% | -9% | CCC1=C(OC(=O)N(CC)CC)N2C(=O)OC(=NCC(=O)OC)[C@]2(Cc2ccccc2)[C@H]2C1=CC[C@H]1C(=O)N(C)C(=O)[C@H]12
-1.4% | 4 | -2% | 1% | CCCSc1nc2ccsc2c(=O)n1CC
-2.7% | · | · | 13% | CCOc1ccc(N2CC(C(=O)N3CCN(c4ccccn4)CC3)CC2=O)cc1 (stereo not given)
0.7% | -3 | -1% | 6% | O=C(COC(=O)Cn1cnc2ccccc21)Nc1cc(S(=O)(=O)N2CCOCC2)ccc1Cl
6.7% | -3 | -5% | 0% | Cc1ccc(/C=C2\SC(=S)N(Cc3ccccc3)C2=O)o1
-0.9% | -10 | -32% | 37% | c1ccc(Cn2cc(CNc3ccccc3)nn2)cc1
2.3% | · | · | -1% | O=C(COc1ccc(F)cc1Cl)N(Cc1nnc(-c2ccccc2Cl)o1)C1CC1
-0.4% | 1 | 1% | 0% | Cc1ccc(S(=O)(=O)NNC2CC(=O)N(c3ccc(Br)cc3)C2=O)cc1 (stereo not given)
2.0% | · | 2% | 4% | COC(C(=O)Nc1ccnn1C1CCN(Cc2ccc(C)s2)CC1)c1ccccc1 (stereo not given)
2.5% | 0 | -8% | 8% | NC(=NC(=O)c1ccc(OC(F)(F)F)cc1)c1ccc(C(F)(F)F)cn1
-2.4% | · | 1% | -2% | COc1cc2c(cc1OC)CN(CC(=O)Nc1cccc(C(F)(F)F)c1)CC2
-1.1% | 2 | -18% | 2% | Cc1nc(-c2ccccc2)sc1C(=O)CSc1ccccc1
-2.3% | -1 | -2% | 0% | CCOc1ccccc1-c1cc(C(=O)N/N=C/c2ccc3c(c2)OCO3)c2ccccc2n1
-1.0% | -5&6 | 0% | 0% | Nc1ccccc1C(=O)/C=C/c1ccc2c(c1)OCO2
-0.4% | -3 | -1% | -1% | CCOC(=O)c1cnn(-c2nc3c(C)cccc3s2)c1C(F)(F)F
3.2% | -6 | -7% | 16% | COCCNC(=O)CN(c1ccc(C)cc1)S(=O)(=O)c1ccc(SC)cc1
-3.0% | · | · | 14% | O=C1c2ccccc2S(=O)(=O)c2cc(N3CCN(c4ccccn4)CC3)ccc21
-0.4% | · | · | 15% | Cc1ccc(S(=O)(=O)N2CCOC23CCN(S(=O)(=O)c2cccs2)CC3)cc1

# For convenience, part of the list above:
Rango complex inh | GLA inh pH 4.5 | miR-21 reporter | Rango release inh | Compound
1.9% | -2 | -1% | 0% | Cc1cccc(-n2cc(CN3CCN(Cc4nccn4C)CC3)c(-c3cccc(F)c3)n2)c1
-3.5% | -6 | -9% | 0% | COc1ccc(-c2nc(NC(=O)CSCCO)sc2C)cc1
-1.6% | · | · | -9% | CCOC(=O)C1=CC[C@H]2c3c(c4ccccc4n3C)C(=O)C1N2S(=O)(=O)c1ccc(C)cc1
? | 0 | -20% | -12% | C=CCOc1c(Br)cc(/C=C2/NC(=S)N(C(C)=O)C2=O)cc1OC
-4.5% | 8 | -1% | 1% | CC(NC(=O)Nc1cccc(Cl)c1)C(c1cccs1)N1CCCC1 (stereo not given)

# From PubChem
